Screens from PubChem.
Vaccinia inh = blocks a specific stage of Vaccinia orthopoxvirus infection; activity change (mCherry), % (concentration not given with the values); Vaccinia-infected cells, mCherry/Venus stage reporter fluorescence; hits give low values; some inactives read as strong as hits; hit rate 0.01% among 89,000;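 active = mCherry past -33% and 40 or more points under the early reporter, replicates agreeing; inconclusive = past -33% without that gap or agreement; tested in A549 cells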;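 also: scaled between vehicle wells and reference inhibitor wells; 23 nL library stock went into each well; one replicate is shown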
Vaccinia inh Venus = further read-out of Vaccinia inh, marked with its call; activity change (Venus), %; measured here: Venus reporter, other viral stage;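 negative = less Venus signal; first of two replicates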
Numbers without * were called inactive; ? = inconclusive; . = not tested or not shown. These rows are one share of the data; count on the stated rates, not on these rows.

molecule,Vaccinia inh,Vaccinia inh Venus
CO[C@@H](CN(C)C(=O)C1CCOCC1)[C@@H](C)CN(C(=O)Nc1ccc(F)cc1)[C@H](C)CO,9,10
CC(C)NC(=O)Nc1ccc2c(c1)C(=O)N([C@H](C)CO)C[C@H](C)[C@H](CN(C)C(=O)NC(C)C)OCCCC[C@H](C)O2,13,-4
CC(=O)N(C)C[C@@H]1Oc2cc(C#Cc3ccccc3F)ccc2S(=O)(=O)N([C@@H](C)CO)C[C@@H]1C,-31,-24
CC(=O)Nc1ccc2c(c1)C(=O)N(C)[C@@H]1CC[C@@H](CC(=O)NCC3CC3)O[C@H]1CO2,11,12
Cc1noc(C)c1S(=O)(=O)N(C)C[C@@H]1OCCCC[C@@H](C)Oc2ccc(NC(=O)C3CCCCC3)cc2C(=O)N([C@H](C)CO)C[C@@H]1C,17,3
CCCC#Cc1cnc2c(c1)C(=O)N([C@H](C)CO)C[C@H](C)[C@H](CN(C)C(=O)Nc1cccc(F)c1)O2,-33,-30
Cc1cccc(S(=O)(=O)N2CC[C@@H]3[C@H](CO)Nc4ccc(C#Cc5ccccc5F)cc4[C@@H]32)c1,0,-3
COCC(=O)N(C)C[C@@H]1Oc2ncc(-c3ccccc3OC)cc2C(=O)N([C@@H](C)CO)C[C@@H]1C,-8,-13
C/C=C/c1cnc2c(c1)C(=O)N([C@@H](C)CO)C[C@@H](C)[C@H](CN(C)C(=O)Cc1ccccn1)O2,13,-7
CCC(=O)N(C)C[C@H]1Oc2cc(C#Cc3cccnc3)ccc2S(=O)(=O)N([C@@H](C)CO)C[C@H]1C,13,6
COc1ccccc1-c1cn(CC[C@@H]2CC[C@H](NC(=O)Cc3ccccn3)[C@H](CO)O2)nn1,-5,0
Cc1ccc(S(=O)(=O)N(C)C[C@H]2Oc3ccc(NS(=O)(=O)c4cccs4)cc3CC(=O)N([C@H](C)CO)C[C@H]2C)cc1,3,-19
COc1ccccc1CNC(=O)C[C@H]1CC[C@H]2[C@@H](COC[C@@H](O)CN2Cc2ccc3c(c2)OCO3)O1,-9,-7
C[C@@H]1CCCCO[C@@H](CN(C)C(=O)CCCN(C)C)[C@@H](C)CN([C@@H](C)CO)C(=O)c2cc(NS(=O)(=O)c3ccc(F)cc3)ccc2O1,0,-2
CCC(=O)N1CCCCN2[C@H](CO)[C@@H](c3ccc(-c4cccnc4)cc3)[C@@H]2C1,16,-2
COc1ccc(S(=O)(=O)Nc2ccc3c(c2)CC(=O)N([C@H](C)CO)C[C@H](C)[C@H](CN(C)C(=O)Nc2ccc(C(F)(F)F)cc2)O3)cc1,-27,-6
CC(C)(C)[S@@](=O)N1Cc2cc(C(=O)N[C@H]3CCN(Cc4ccccc4)C3)nc(-c3cccc(-c4cccnc4)c3)c2[C@H]1CCO,-35,1
C[C@@H]1CN([C@H](C)CO)C(=O)c2cc(/C=C/c3ccccc3)cnc2O[C@H]1CN(C)S(=O)(=O)c1cn(C)cn1,17,-2
CNC(=O)C[C@H]1CC[C@@H]2[C@H](COc3ccc(NC(=O)C4CCCCC4)cc3C(=O)N2C)O1,26,23
C[C@@H]1CN([C@@H](C)CO)C(=O)c2cc(C#CCc3ccccc3)cnc2O[C@@H]1CN(C)Cc1ccccc1,?,.
Cc1noc(C)c1NC(=O)NCC[C@@H]1CC[C@@H](NC(=O)c2ccccc2)[C@@H](CO)O1,10,5
Cc1noc(C)c1NC(=O)Nc1ccc2c(c1)C(=O)N([C@H](C)CO)C[C@@H](C)[C@H](CN(C)CC1CCCCC1)OCCCC[C@@H](C)O2,22,10
C[C@@H]1CN([C@@H](C)CO)C(=O)c2cc(NC(=O)Nc3cccc4ccccc34)ccc2O[C@@H]1CN(C)C(=O)Nc1ccccc1,1,5
COc1ccccc1-c1cn(CC[C@@H]2CC[C@@H](NC(=O)C3CCOCC3)[C@H](CO)O2)nn1,-5,1
Cc1ccccc1-c1ccc2c(c1)O[C@@H](CN(C)CC1CC1)[C@@H](C)CN([C@H](C)CO)S2(=O)=O,-12,-17

Given with each value named: entries from further up.
C[C@@H]1CN([C@@H](C)CO)C(=O)c2cc(NC(=O)Nc3cccc4ccccc34)ccc2O[C@@H]1CN(C)C(=O)Nc1ccccc1
- Vaccinia inh: 1
- Vaccinia inh Venus: 5
CC(C)NC(=O)Nc1ccc2c(c1)C(=O)N([C@H](C)CO)C[C@H](C)[C@H](CN(C)C(=O)NC(C)C)OCCCC[C@H](C)O2
- Vaccinia inh: 13
- Vaccinia inh Venus: -4

Other structures:
molecule,Vaccinia inh,Vaccinia inh Venus
COc1ccccc1CNC(=O)C[C@@H]1C[C@@H]2c3cc(NC(=O)C4CCC4)ccc3O[C@@H]2[C@@H](CO)O1,7,3
CCCNC(=O)c1cc2c(c(-c3cccc(-c4ccncc4)c3)n1)[C@@H](CCO)N(S(=O)(=O)CC)C2,17,14
COc1ccc(CN(C)C[C@H]2Oc3ccc(NS(=O)(=O)c4cccs4)cc3C(=O)N([C@@H](C)CO)C[C@H]2C)cc1,-8,-7
COc1cccc(S(=O)(=O)N[C@@H]2CC[C@H](CCn3cc(-c4ccc(F)cc4)nn3)O[C@@H]2CO)c1,-25,-19
COCC(=O)N1[C@@H](C#N)[C@H](c2ccc(C#CCC3CCCC3)cc2)[C@@H]1CO,-11,-13
CCC(=O)N1CC2(C1)[C@H](c1ccccc1)[C@H](CO)N2CCC(F)(F)F,6,11
C[C@H](CO)N1C[C@H](C)[C@@H](CN(C)C(=O)Nc2cccc3ccccc23)Oc2ccc(N(C)C)cc2CC1=O,17,14
COc1ccc(NC(=O)Nc2ccc3c(c2)[C@@H]2C[C@H](CC(=O)N4CCCCC4)O[C@H](CO)[C@@H]2O3)cc1,4,3
COc1ccc(NC(=O)N(C)C[C@@H]2Oc3ccc(NC(=O)CCN4CCOCC4)cc3C(=O)N([C@@H](C)CO)C[C@@H]2C)cc1,-4,1
C[C@H](CO)N1C[C@H](C)[C@H](CN(C)Cc2cccc(C(F)(F)F)c2)OCc2ccccc2-c2c(n(C)c3ccccc23)C1=O,-27,-21
C[C@@H]1CN([C@@H](C)CO)C(=O)Cc2cc(NC(=O)C3CC3)ccc2O[C@H]1CN(C)C,16,9
C[C@@H]1CN([C@@H](C)CO)C(=O)c2cc(-c3cccc(F)c3)cnc2O[C@@H]1CN(C)Cc1cccnc1,3,-1
C[C@H](CO)N1C[C@H](C)[C@H](CN(C)Cc2ccc3c(c2)OCO3)Oc2ccc(NS(=O)(=O)c3cccs3)cc2CC1=O,-8,0
O=C(c1cnccn1)N1C[C@H]2[C@@H](c3ccccc31)[C@@H](CO)N2Cc1ccccc1Cl,6,6
CCCN1C[C@H](C)[C@H](OC)CN(C)C(=O)c2cc(NC(=O)c3cnccn3)ccc2OC[C@@H]1C,10,5
CC(C)NC(=O)N[C@H]1CC[C@H](CCn2cc(-c3ccccc3)nn2)O[C@@H]1CO,-25,-10
C[C@H]1CN([C@@H](C)CO)S(=O)(=O)c2ccc(Br)cc2O[C@@H]1CN(C)CC1CCOCC1,-12,-15
COc1ccccc1C(=O)Nc1ccc2c(c1)OC[C@H](C)NC[C@H](C)[C@H](OC)CN(C)C2=O,4,6
C[C@H]1CN([C@@H](C)CO)C(=O)Cc2cc(NS(=O)(=O)c3cccs3)ccc2O[C@@H]1CN(C)Cc1ccc2c(c1)OCO2,-4,0
C[C@@H]1CN([C@H](C)CO)C(=O)Cc2cc(NS(C)(=O)=O)ccc2O[C@H]1CN(C)CC1CC1,-4,6
CS(=O)(=O)Nc1ccc2c(c1)[C@@H]1C[C@@H](CC(=O)O)O[C@@H](CO)[C@@H]1O2,23,17
COc1ccc(-c2ccc([C@@H]3[C@@H](C#N)N(C(=O)CN(C)C)[C@@H]3CO)cc2)cc1,-4,-5
C[C@@H]1CN([C@H](C)CO)C(=O)c2cc(NC(=O)Nc3ccc4c(c3)OCO4)ccc2O[C@H]1CN(C)Cc1ccccc1,-9,-11
CNC[C@H]1Oc2ccc(NC(=O)Nc3c(C)noc3C)cc2CC(=O)N([C@H](C)CO)C[C@@H]1C,6,6
O=C(NC1CCCC1)N1CCCCN2[C@H](C1)[C@H](c1ccc(-c3ccncc3)cc1)[C@@H]2CO,-4,-7

(listing goes on)
Value order – Vaccinia inh | Vaccinia inh Venus
CO[C@@H]1CN(C)C(=O)c2cc(NC(C)=O)ccc2OC[C@@H](C)N(C(=O)c2ccncc2)C[C@H]1C
    9 | 2
Cc1ccc(S(=O)(=O)N(C)C[C@H]2OCCCC[C@H](C)Oc3ccc(NC(=O)Nc4ccc(C(F)(F)F)cc4)cc3C(=O)N([C@H](C)CO)C[C@H]2C)cc1
    -6 | -4
CCC(=O)N1[C@H](CO)[C@H]2c3ccccc3N(C(=O)c3ccccc3F)C[C@H]21
    19 | 2
C[C@@H]1CCCCO[C@@H](CN(C)C(=O)Cc2ccccc2)[C@H](C)CN([C@@H](C)CO)C(=O)c2cc(NS(=O)(=O)c3ccc(Cl)cc3)ccc2O1
    ? | .
O=C(C[C@@H]1CC[C@H]2[C@@H](COC[C@@H](O)CN2C(=O)c2ccccn2)O1)NC1CCC1
    4 | -7
CN(C)C(=O)C[C@@H]1CC[C@H]2[C@H](COc3ccc(NC(=O)C4CCC4)cc3C(=O)N2C)O1
    4 | 1
COCC(=O)N1C[C@H]2[C@@H](c3ccccc31)[C@H](CO)N2Cc1ccccc1
    9 | 4
CCCC(=O)Nc1ccc2c(c1)C(=O)N(C)C[C@@H](OC)[C@@H](C)CN(C(=O)c1cnccn1)[C@H](C)CO2
    -5 | -2
C[C@H]1CN([C@@H](C)CO)C(=O)c2cc(NC(=O)Cn3cnnn3)ccc2O[C@H]1CN(C)Cc1ccccc1
    3 | 7
Cc1noc(C)c1NC(=O)N[C@H]1C=C[C@@H](CC(=O)NCCCN(C)C)O[C@@H]1CO
    12 | 6
COc1ccc2c3c(n(C)c2c1)[C@H](CO)N(C(=O)C1CCC1)CC31CCN(C(=O)CN(C)C)CC1
    14 | 9
CCC(=O)Nc1ccc2c(c1)C(=O)N(C)[C@@H]1CC[C@H](CC(=O)NCCOC)O[C@H]1CO2
    15 | 21
Cc1cc(C(=O)Nc2ccc3c(c2)C(=O)N(C)[C@@H]2CC[C@@H](CC(=O)N[C@@H](C)c4ccccc4)O[C@@H]2CO3)no1
    -13 | -8
C[C@H]1CN([C@@H](C)CO)C(=O)c2cc(NS(=O)(=O)c3cccs3)ccc2O[C@@H]1CN(C)Cc1ccc(C(=O)Nc2ccccc2N)cc1
    5 | 1
C[C@H](CO)N1C[C@H](C)[C@@H](CN(C)C(=O)c2ccncc2)OCCCC[C@H](C)Oc2ccc(NS(=O)(=O)c3ccc(Cl)cc3)cc2C1=O
    35 | 19

Additional records follow:
Value order – Vaccinia inh | Vaccinia inh Venus
CC(C)NC(=O)N(C)C[C@H]1OCCCC[C@@H](C)Oc2ccc(NS(=O)(=O)c3ccc(F)cc3)cc2C(=O)N([C@H](C)CO)C[C@@H]1C
    17 | 11
CC(C)CC#Cc1cnc2c(c1)C(=O)N([C@H](C)CO)C[C@H](C)[C@H](CN(C)C(=O)C1CCCCC1)O2
    -8 | -3
C[C@H](CO)N1C[C@H](C)[C@@H](CN(C)Cc2ccc(C(F)(F)F)cc2)Oc2ccc(NC(=O)Nc3ccc4c(c3)OCO4)cc2C1=O
    -16 | -19
CO[C@@H]1CN(C)C(=O)c2cc(NS(C)(=O)=O)ccc2OC[C@H](C)N(C(=O)C2CCCC2)C[C@H]1C
    0 | 1
CCCN(C)C[C@@H]1Oc2ncc(-c3cccnc3)cc2C(=O)N([C@H](C)CO)C[C@H]1C
    34 | 17
CN(C)C(=O)c1cccc(-c2ccc3c(c2)[C@@H]2[C@@H](CCN2S(=O)(=O)c2ccccc2)[C@H](CO)N3)c1
    -7 | -4
CO[C@H]1CN(C)C(=O)c2ccc(NC(=O)c3ccc4c(c3)OCO4)cc2OC[C@@H](C)N(CCC(F)(F)F)C[C@@H]1C
    -28 | -21
C[C@@H]1CN([C@H](C)CO)C(=O)c2cc(NC(=O)Nc3ccc(F)cc3)ccc2O[C@@H]1CN(C)Cc1ccc(C(F)(F)F)cc1
    ? | .
O=C(c1ccncc1)N1C[C@@H]2[C@H](c3ccccc31)[C@H](CO)N2C(=O)c1ccccn1
    15 | 9
COc1ccccc1NC(=O)N[C@H]1CC[C@H](CCn2cc(-c3ccccc3)nn2)O[C@@H]1CO
    -14 | -11
O=C(Nc1ccc(Cl)cc1)N[C@H]1CC[C@H](CCn2cc(Cc3ccccc3)nn2)O[C@@H]1CO
    -32 | -32
C[C@@H]1CN([C@H](C)CO)C(=O)c2cc(-c3cccc(C#N)c3)cnc2O[C@H]1CN(C)C(=O)C1CCC1
    14 | 12
C[C@@H]1CN([C@@H](C)CO)C(=O)Cc2cc(NS(=O)(=O)c3cn(C)cn3)ccc2O[C@H]1CN(C)Cc1ccc(Oc2ccccc2)cc1
    -21 | -18
O=C(N[C@H]1CC[C@@H](CCn2cc(-c3ccccc3)nn2)O[C@H]1CO)c1cnccn1
    15 | 5
O=C(Nc1ccccc1)N1CC(=O)N2[C@H](C1)[C@@H](c1ccc(C#Cc3cccnc3)cc1)[C@@H]2CO
    -8 | -10
C[C@H](CO)N1C[C@H](C)[C@H](CN(C)S(=O)(=O)c2cn(C)cn2)Oc2c(NS(=O)(=O)c3ccc(F)cc3)cccc2C1=O
    5 | 6

Four compounds picked at random from the list so far, as already listed:
Value order – Vaccinia inh | Vaccinia inh Venus
COc1ccccc1NC(=O)N[C@H]1CC[C@H](CCn2cc(-c3ccccc3)nn2)O[C@@H]1CO
    -14 | -11
O=C(Nc1ccc(Cl)cc1)N[C@H]1CC[C@H](CCn2cc(Cc3ccccc3)nn2)O[C@@H]1CO
    -32 | -32
CC(C)CC#Cc1cnc2c(c1)C(=O)N([C@H](C)CO)C[C@H](C)[C@H](CN(C)C(=O)C1CCCCC1)O2
    -8 | -3
O=C(N[C@H]1CC[C@@H](CCn2cc(-c3ccccc3)nn2)O[C@H]1CO)c1cnccn1
    15 | 5
